# CSC inhib: blocks cancer stem cells | 300,000 tested, 1.1% active | inhibition, % at 7.5 µM | cancer stem cell-like cells viability, luminescence;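 active = mean at 75% or more and at least half the replicates too; inconclusive = mean and replicates disagree; tested in HMLE shEcad cells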;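 also: 0% = median of negative and 100% = median of positive control wells; the first replicate is given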
# PABP polyA inh: PABP-poly(A) binding inhibition; P11940; PABP-poly(A) RNA binding, fluorescence polarization; inhibition, % at 35 µM; 290,000 tested, 1% active;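 active = 50% or more with normal probe brightness, or confirmed in later tests; inconclusive = above 50% with abnormal brightness, or retests that disagree; inactive = below 50% or failed in later tests; about a fifth of its hits are not listed in these tables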;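 also: calls also rest on retests at 20 µM and on dose response follow-up; controls were probe without protein and protein plus probe with vehicle; some compounds called inactive have numbers as strong as hits; many hits fall short of the cut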
# Target sequence (P11940 whole entry, looked up): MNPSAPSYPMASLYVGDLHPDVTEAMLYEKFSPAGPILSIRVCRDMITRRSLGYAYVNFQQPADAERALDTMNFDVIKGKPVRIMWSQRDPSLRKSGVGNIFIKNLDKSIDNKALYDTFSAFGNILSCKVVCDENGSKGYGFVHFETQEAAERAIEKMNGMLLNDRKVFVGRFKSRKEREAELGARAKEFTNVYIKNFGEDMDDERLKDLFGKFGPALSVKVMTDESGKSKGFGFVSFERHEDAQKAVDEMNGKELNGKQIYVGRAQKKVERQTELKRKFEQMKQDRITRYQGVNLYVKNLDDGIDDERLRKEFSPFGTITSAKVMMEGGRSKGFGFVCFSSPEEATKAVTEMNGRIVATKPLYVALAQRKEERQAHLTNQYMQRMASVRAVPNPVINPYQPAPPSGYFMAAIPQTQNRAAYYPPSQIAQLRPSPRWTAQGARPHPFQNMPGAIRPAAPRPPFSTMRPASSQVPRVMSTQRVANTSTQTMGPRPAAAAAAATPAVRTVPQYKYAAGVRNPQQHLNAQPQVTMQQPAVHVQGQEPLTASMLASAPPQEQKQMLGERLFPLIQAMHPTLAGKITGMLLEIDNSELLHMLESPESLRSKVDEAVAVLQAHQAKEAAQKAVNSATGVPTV
# UUG fidelity: alters start codon recognition fidelity in yeast; AID 602363; S. cerevisiae UUG-firefly luciferase reporter, luminescence/redox ratio; activity score, % at 18.7 µM; 350,000 tested, 0.13% active;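 active = replicate mean at a twofold rise or more, about +100% in these data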;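 also: firefly luciferase made from a UUG start codon reports start codon fidelity; reporter light over untreated wells divided by growth signal over untreated wells; some hits fall short of that in this replicate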
# MT1-MMP act inh: blocks activation of human MT1-MMP. P50281. HT1080 RFP-PRO-GFP cells, GFP/RFP ratio fluorescence, overnight; percent of plate control window, DMSO zero. GFP/RFP ratio change, % at 20 µM. 360,000 tested, 0.061% active;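 active = GFP/RFP ratio change of at least 30% with cell ATP level not reduced by more than half and red fluorescence within 50% of control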; also: strong numbers were not always called active
#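 Test system: HT1080 cells expressing an RFP-PRO-GFP fluorescent reporter construct / Compound dosing: single-point 20 µM compound, 1% DMSO / Schedule: cells overnight before dosing, compound overnight, 37 °C, 5% CO2 / Evaluation: GFP/RFP fluorescence ratio / Control set: DMSO and RFP-L50D-GFP cell wells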
# eIF4H FP inh: inhibitors of RNA binding by human eIF4H | Q15056 | eIF4H fluorescence polarization binding assay | inhibition, % at 35 µM | 290,000 tested, 0.94% active;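 active = 50% or more with normal probe brightness, or confirmed in later tests; inconclusive = above 50% with abnormal brightness, or retests that disagree; inactive = below 50% or failed in later tests; about a fifth of its hits are not listed in these tables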;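 also: calls also rest on retests at 20 µM and on dose response follow-up; 0% = protein and probe with vehicle and 100% = probe without protein; strong numbers were not always called active; many hits fall short of the cut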
# Rce1 inh: inhibitors of yeast Ras-converting enzyme | calls only | yeast membranes, quenched prenylated peptide cleavage fluorescence | Q03530 | 290,000 tested, 0.27% active | AID 2563;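 active = fall in fluorescence gain of 50% or more versus controls, with final raw signal at or below 3038400; inconclusive = same 50% fall but final raw signal above 3038400; inactive = fall in fluorescence gain under 50%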;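 also: plate controls were neutral control wells for no effect and wells lacking membranes for full effect; tested at 10 µM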
# Target sequence (Q03530 whole entry, looked up): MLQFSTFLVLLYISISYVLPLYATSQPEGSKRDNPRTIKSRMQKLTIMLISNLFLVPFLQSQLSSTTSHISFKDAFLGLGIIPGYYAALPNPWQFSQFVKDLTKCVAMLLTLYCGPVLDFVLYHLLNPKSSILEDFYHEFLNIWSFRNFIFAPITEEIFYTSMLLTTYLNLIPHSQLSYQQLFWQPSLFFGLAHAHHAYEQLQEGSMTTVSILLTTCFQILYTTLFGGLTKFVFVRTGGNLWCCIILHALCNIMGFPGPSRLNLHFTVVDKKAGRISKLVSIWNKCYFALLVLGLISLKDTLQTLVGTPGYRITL
# Env fusion inh: inhibitors of HIV Env-mediated cell fusion; HeLa-JRFL Env/CEM21 cell fusion, luciferase; inhibition, % at 12.3 µM; AID 651610; 360,000 tested, 1.1% active;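 active = mean replicate inhibition score of at least 50 and every replicate individually at or above 50; inconclusive = only one of the two criteria met; inactive = mean below 50 and not all replicates reaching 50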;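 also: 0% = plate neutral controls and 100% = maraviroc near 300 nM; one replicate is shown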
# eIF4H FP inh retest: second read-out of eIF4H FP inh, no call of its own (marks repeat the call); inhibition, %; compound at 20 µM; confirmation average;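 mean of two retest wells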
# PABP polyA inh retest: also measured in PABP polyA inh; calls as there; inhibition, %; compound at 20 µM; confirmation repeats;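 mean of two retest wells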
# MT1-MMP act inh RFP: second read-out of MT1-MMP act inh, no call of its own (marks repeat the call); RFP signal change, %; measured here: RFP expression control read;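 0 = vehicle wells; hits needed this value within 50% of zero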
# * = called active by the depositor; i = inactive; ? = inconclusive; nt = no result given; & = joins results of further samples; [ ] = remark or other dose. A portion of the library; rates above refer to the full screens.
SMILES,CSC inhib,PABP polyA inh,UUG fidelity,MT1-MMP act inh,MT1-MMP act inh RFP,eIF4H FP inh,Rce1 inh,Env fusion inh,others
CN(C)CCNC(=O)/C(=C/c1ccc(-c2ccc(Cl)cc2Cl)o1)NC(=O)c1ccccc1,110*,9,nt,-5,-5,-4,i,2,
O=C(Nc1ccccc1F)Nc1cc(S(=O)(=O)N2CCOCC2)ccc1N1CCCC1,-11,-6,nt,-1,-3,-2,i,-3,
Cc1ccc(C)c(N2CCN(C(=O)c3ccc4c(=O)n5c(nc4c3)CCCCC5)CC2)c1,nt,-8,-2,8,-7,-8,i,36,
CCOC(=O)c1nnn(CC(=O)NC(=O)Nc2ccc(F)cc2)c1C(=O)OCC,1,-19,nt,-3,-4,-10,i,-1,
COc1cccc(-c2cc(C(=O)N3CCCc4ccccc43)no2)c1,21,-6,nt,0,0,-3,i,nt,
COc1cccc(NC(=O)CN(C)C(C)C(=O)N2CCCC2)c1 (centres undefined),nt,nt,7,-3,-2,nt,nt,-5,
O=C(CSc1nc2nn(-c3ccccc3)c(=O)c-2c2n1CCCCC2)Nc1cccc(F)c1,-14,nt,-5,-2,-10,nt,nt,11,
Cc1occc1C(=O)Nc1cccc(C(=O)O)c1,-1,7,-21,5,6,-6,i,-5,
Cc1ccc(-c2csc(N3CCC(C(N)=O)(N4CCCCC4)CC3)n2)cc1,-4,2,4,-2,-4,-3,i,10,
C=CCn1c2ccccc2c2nnc(SCC(=O)OC)nc21,nt,nt,13,0,0,nt,nt,14,
CCOC(=O)c1c(NC(=O)CSc2nnc(CNC(=O)c3ccco3)n2C)sc2c1CCC2,-4,4,-1,-2,-5,-6,i,nt,
Cn1c(SCCCC(=O)c2ccc(F)cc2)nnc1-c1ccncc1,-21,0,0,-1,-3,6,i,nt,
CCc1nc2ccc(C(=O)NCCN3CCCC3)cn2c1N(C)Cc1ccc(OC)cc1,nt,nt,-3,-5,-2,nt,nt,-5,
Cc1ccc(SCC(=O)NC2CCCCCC2)cc1,0,3,-6,1,0,-6,nt,-1,
Cc1ccc(N(C(=O)c2snc(C(N)=O)c2N)C(C(=O)NCC2CCCO2)c2c[nH]c3ccccc23)cc1 (centres undefined),3,-8,nt,-7,-2,-6,i,18,
COc1ccccc1CNC(=O)C1CC(c2cccc([N+](=O)[O-])c2)=NO1 (centres undefined),38,-6,-11,4,4,0,i,-50,
CCO[C@H]1OC(C(=O)N2CCN(Cc3ccc4c(c3)OCO4)CC2)=C[C@@H](C)[C@@H]1CCCO,-5,-1,-6,4,-3,-13,i,-11,
CCn1c(COc2ccccc2)nnc1SCC(=O)CC(=O)Nc1ccccc1OC,-7,-4,-18,-8,-1,10,i,-72,
CN(c1ncc(C(F)(F)F)cc1Cl)N1C(=O)C2ONC3(C(=O)CC(C)(C)CC3=O)C2C1=O (centres undefined),nt,2,nt,-4,0,1,i,7,
O=C(COC(=O)c1cncc(Br)c1)Nc1nnc(-c2ccccc2)o1,-17,33,-18,0,4,70*,i,16,eIF4H FP inh retest=83*;PABP polyA inh retest=41
Cc1c(C(=O)N2CCN(C(c3ccccc3)c3ccccc3)CC2)oc2ccccc12,36,nt,-14,-6,-13,nt,nt,10,
C[C@H]1CN([C@@H](C)CO)C(=O)CCCn2nncc2CO[C@H]1CN(C)S(=O)(=O)c1cccc(F)c1,nt,nt,-25&-2&-9,4,4,nt,nt,-7,
C=CCNc1oc(-c2ccc(Cl)cc2)nc1C#N,nt,nt,-23,12,-4,nt,nt,-7,
Cc1nsc(Nc2ccc([N+](=O)[O-])cc2)c1C#N,7,-6,-2,-12,-15,9,i,12,
COC(=O)c1[nH]c2cc(OC)ccc2c1NC(=O)CCN1CCSCC1,-22,6,-48,6,4,-6,i,-22,

# Next part
SMILES,CSC inhib,PABP polyA inh,UUG fidelity,MT1-MMP act inh,MT1-MMP act inh RFP,eIF4H FP inh,Rce1 inh,Env fusion inh,others
CC12c3ccccc3C(c3ccccc31)C1C(=O)N(c3ccncc3)C(=O)C12 (centres undefined),1,-4,-3,0,-1,-7,i,-7,
CCn1cc(C(=O)N2CCN(C3CCCCC3)CC2)c2cc(OC)c(OC)cc2c1=O,23,2,-24,3,3,-2,i,nt,
COc1cccc(CCc2nnc(CCC(=O)NC(C)c3c(C)nn(C)c3C)o2)c1 (centres undefined),-15,-10,-8,1,2,-13,i,-11,
O=C(COC(=O)c1ccccc1)Nc1ncc([N+](=O)[O-])s1,-16,nt,-3,1,0,nt,nt,-6,
O=C(CN1CCN(Cc2ccccc2Cl)C1=O)NCCCN1CCOCC1,-11,0,-33,-6,-2,10,i,10,
O=C(NCc1ccco1)c1ccc2c(=O)n(-c3ccccc3)c(=O)n(Cc3cccc(F)c3)c2c1,-11,-11,5,0,0,-8,i,-38,
O=C1N[C@@H](Cc2cnc[nH]2)C(=O)N2CCC[C@@H]12,-4,-12,-15,1,5,0,i,nt,
COc1ccc(S(=O)(=O)NN(C)c2nc(C(F)(F)F)nc3ccccc23)cc1,57,38,nt,1,-2,-3,i,3,
CN1CCN(CC(=O)Nc2ccc(Oc3ccccc3)cc2)CC1,27,-9,-8,nt,nt,-8,i,10,
COC(=O)Cc1c(C)nc2nc(NCc3ccc(Cl)cc3)[nH]n2c1=O,-8,-1,-18,15,9,2,i,-65,
CC(=O)OCC1=C(C(=O)O)N2C(=O)C(NC(=O)c3ccc(F)cc3)C2SC1 (centres undefined),-8,-7,nt,-3,5,35,i,-8,
CCCn1c(N)c(C(=O)COC(=O)CCS(=O)(=O)c2ccc(C)cc2)c(=O)[nH]c1=O,4,-4,-5,1,5,11,nt,-12,
CCc1ccccc1NC(=O)CN1C(=O)c2ccccc2S1(=O)=O,0,4,-13,4,6,-4,i,-7,
CN(CCCNC(=O)c1cccn2c(=O)c3ccccc3nc12)Cc1ccccc1,2,-1,nt,6,-3,-4,i,nt,
Cc1cccc(N2CCN(C(=O)c3cccc(S(=O)(=O)N4CCOCC4)c3)CC2)c1C,nt,nt,-11,1,-12,nt,nt,6,
O=C(O)c1ccc(C(=O)c2ccc3c(c2)C(=O)N(CCO)C3=O)cc1,32,1,-6,-5,3,-10,i,6,
Cc1nnc(NC(=O)CSc2nnc(C)n2-c2ccc(F)cc2)s1,-12,3,-5,1,3,6,i,-6,
CCOc1ccc(-c2nnc3ccc(SC(C)C)nn23)cc1,6,-5,-10,-8,-4,-8,i,3,
CCCN1C(=O)CC(Sc2ncccc2C(=O)O)C1=O (centres undefined),-10,2,-25,0,0,-1,i,6,
O=S(=O)(NN=C(c1ccccc1)c1ccccc1)c1ccccc1,nt,nt,-17,-7,-3,nt,nt,-6,
COc1ccc(CNc2nc(=S)[nH]c3cc(OC)c(OC)cc23)cc1,-6,-5,-14,3,-1,7,i,6,
CC(=O)O[C@H]1C(=O)[C@@]2(C)[C@H]([C@H](OC(=O)c3ccccc3)[C@]3(O)C[C@H](OC(=O)[C@H](O)[C@@H](NC(=O)c4ccccc4)c4ccccc4)C(C)=C1C3(C)C)[C@]1(OC(C)=O)CO[C@@H]1C[C@@H]2O,63,nt,-15,-8,-14,nt,nt,-13,
CNCC(=O)Nc1c(C)n[nH]c1C,2,16,5,3,2,-10,i,12,
COc1ccccc1N1CCN(C(=O)Cn2nc3n(C)c4ccccc4n3c(=O)c2=O)CC1,2,0,nt,nt,nt,-4,i,nt,
COc1ccc(CCn2nnnc2C(CC(C)C)N2CCC(C(N)=O)CC2)cc1OC (centres undefined),-9,-2,-1,-1,-2,1,i,nt,

# Additional records:
SMILES,CSC inhib,PABP polyA inh,UUG fidelity,MT1-MMP act inh,MT1-MMP act inh RFP,eIF4H FP inh,Rce1 inh,Env fusion inh,others
O=C(O)c1ccccc1Nc1ccc([N+](=O)[O-])c2nonc12,6,-6,9,-9,6,0,i,nt,
COc1ccccc1CNC(=O)c1ccc(-c2ccccc2)cc1,10,-4,-12,-4,1,-4,i,10,
Cc1nnc(SCc2nc3sc(C(=O)O)c(C)c3c(=O)[nH]2)s1,-4,28,-6,3,2,36,i,1,
O=C(NCc1ccccc1)c1ccccc1C(=O)c1ncc[nH]1,12,-7,nt,-2,-2,1,i,-3,
O=C(NCc1ccc(Cl)c(Cl)c1)c1cc(C2CCCCN2C(=O)OCCF)on1 (centres undefined),nt,nt,-1,0,-2,nt,nt,3,
CC1(C(=O)CSc2nc3ccccc3[nH]2)CCC(=O)O1 (centres undefined),-6,-14,-23,7,2,20,i,nt,
Cn1cnnc1SCC(=O)c1ccc2c(c1)CCCC2,-17,11,-15,7,4,-7,i,nt,
O=C(N/N=C(\c1ccccc1)c1cccnc1)c1ccc(O)cc1,-8,5,-15,-7,-2,-9,i,nt,
COc1ccc(S(=O)(=O)N(C)C[C@H]2Oc3ccc(NS(=O)(=O)c4cn(C)cn4)cc3C(=O)N([C@H](C)CO)C[C@@H]2C)cc1,nt,nt,-16,2,8,nt,nt,-4[16.7 µM],
CCOC(=O)[C@H]1[C@H]2COc3ccccc3[C@@H]2N2C(=O)c3ccccc3NC(=O)[C@@]12C,-15,nt,-10,1,-2,nt,nt,-93,
CC(C)CNC(=O)C(=O)Nc1ccc(N(C)C)cc1,5,1,nt,3,5,-4,nt,-24,
N#CC(c1cccc(Cl)c1)c1ncc(C(F)(F)F)cc1Cl (centres undefined),2,-9,-17,-5,-4,-5,i,19,
CCOc1ccc(N2CC(C(=O)NC3CCSC3=O)CC2=O)cc1 (centres undefined),nt,5,-11,4,3,-2,i,-6,
O=C(CCCN1CCN(c2ccccn2)CC1)c1ccc(F)cc1,19,nt,-5,4,6,nt,nt,1,
O=S(=O)(Nc1cccc(S(=O)(=O)N2CCCC2)c1)c1ccccc1F,-4,nt,8,0,3,nt,nt,-24,
Cc1c2c(nc3ccccc13)OCC2,nt,8,-6,-2,-2,-2,nt,15,
O=C(O)CCc1ccc(-c2cccs2)n1NC(=O)c1ccc(O)cc1,4,24,nt,-1,5,17,i,nt,
O=C(Cc1cc(=O)[nH][nH]1)N/N=C/c1ccccc1Cl,5,9,nt,nt,nt,32,i,-5,
c1ccc(CNc2ncnc3nc[nH]c23)cc1,nt,13,-12,0,-1,-1,i,-303,
O=C(CNS(=O)(=O)c1ccc2ccccc2c1)NCCc1ccccn1,nt,-10,-9,2,3,9,i,9,
CN(Cc1cccs1)C(=O)COc1ccc(-c2nnco2)cc1,-17,-3,-12,0,-8,2,i,-89,
NCC1CCC(C(=O)Oc2ccc(CCC(=O)O)cc2)CC1 (centres undefined),-4,nt,-14,2,-2,nt,i,34,
Cc1ccc([N+](=O)[O-])c(OCC(=O)OCC(=O)c2ccccc2)c1,-11,-9,3,-4,3,-11,i,-6,
O=C(c1cc(-c2ccncc2)nc2ccc(Cl)cc12)N1CCN(Cc2ccc3c(c2)OCO3)CC1,17,23,nt,-10,-6,63,i,-2,eIF4H FP inh retest=18;PABP polyA inh retest=43
CC(C)c1nc2oc3c(=O)[nH]cnc3c2c2c1CCC2,-2,11,-18,5,3,-3,i,-33,
Nc1c(C(=O)NCCN2CCOCC2)c2nc3ccccc3nc2n1CCc1ccccc1,23,5,-7,-13,7,1,i,nt,
CCC(C)(C)NC(=O)c1ccc(S(=O)(=O)N(C)c2ccccc2OC)cc1,6,-13,-13,-4,-1,-6,i,-46,
CCOC(=O)c1cnc2ccc(C)cc2c1NCCO,6,1,3,3,-1,-9,i,nt,
CCC(=O)N1N=C(c2ccc(NS(=O)(=O)CC)cc2)CC1c1ccc(C)cc1 (centres undefined),-3,-7,nt,-1,-1,5,?,-19,
